# From PubChem
# GPR55 antagonists: inhibition of LPI-stimulated GPR55 beta-arrestin translocation – imaging, U2OS, beta-arrestin-GFP, LPI agonist, primary screen (AID 2013); one-dose inhibition, % at 10 µM; IC50 in µM for titrated hits; actives 0.13% (n = 290,000); U2OS GPR55 beta-arrestin-GFP translocation imaging, LPI antagonism; higher % means a stronger effect;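 active means spots per cell inhibited over 60%, with over 100 cells counted and total cytoplasm intensity under 500,000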;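 further: U2OS cells stably carrying GPR55 and arrestin-GFP stimulated by 5 µM LPI near EC80; imaged beta-arrestin-GFP aggregate spots per cell after agonist stimulation; plate controls were LPI-stimulated DMSO wells for no effect and DMSO wells without LPI for full effect; some results filed as inactive read as strong as hits; confirmed hits need IC50 under 10 µM and bright autofluorescent wells are also inconclusive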
# SV40 large T antigen: TAg ATPase/helicase activity blockers – biochemical (AID 1903) | actives 0.39% (n = 310,000) | inhibition, % at 20 µM, or IC50 in µM where a hit was titrated | SV40 large T antigen ATPase/helicase inhibition assay; higher % means a stronger effect; in the data active means a potency from the dose series; further: strong numbers were not always called active
# GPR55 activation: GPR55 agonists via beta-arrestin recruitment, primary screen, imaging, U2OS cells, beta-arrestin-GFP redistribution (AID 1961). U2OS GPR55 beta-arrestin-GFP redistribution imaging; higher % means a stronger effect. one-dose activation, % at 10 µM; EC50 in µM for titrated hits. actives 0.048% (n = 290,000);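 active means activation above 40% with more than 50 cells counted in the well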;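 further: U2OS osteosarcoma cells stably expressing GPR55 and beta-arrestin-GFP; plate controls were DMSO negative control for no effect and LPI positive control for full effect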
# LYP phosphatase: PTPN22 lymphoid phosphatase activity blockers – biochemical, fluorescence intensity, uHTS (AID 1779). recombinant LYP phosphatase, fluorescence intensity; higher % means a stronger effect. one-dose inhibition, % at 11.5 µM; IC50 in µM for titrated hits. actives 0.054% (n = 290,000); in the data active means inhibition above about 50%;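 further: plate controls were vehicle with enzyme for no effect and no enzyme for full effect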
# GPR35 antagonists: inhibition of zaprinast-stimulated GPR35 beta-arrestin translocation – imaging, U2OS, beta-arrestin-GFP, zaprinast agonist, primary screen (AID 2058); U2OS GPR35 beta-arrestin-GFP translocation imaging, zaprinast antagonism; higher % means a stronger effect; inhibition, % at 10 µM; hits with a dose series show IC50 in µM; actives 0.052% (n = 290,000);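 active means inhibition of at least 50% with at least 30 cells and total cytoplasm GFP at most 10,000,000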
# * marks the source's active call; other numbers are inactive results; . = not tested or not shown; & = joins results of further samples. A portion of the library. The share of hits here may be higher or lower than overall.
SMILES,GPR55 antagonists,SV40 large T antigen,GPR55 activation,LYP phosphatase,GPR35 antagonists
CCOC(=O)c1c(C)oc2ccc(O)cc12,3.1%,3.2%,-0.1%,-3.0%,6.7%
COc1ccc2c(c1OC)C(=O)OC2C1c2c(cc3c(c2OC)OCO3)CCN1C (centres undefined),-2.0%&-2.5%,6.3%&1.8%&19.1%,-0.1%&-0.2%,-1.7%&-6.8%,0.0%&-8.4%
COc1ccc2c(c1)c(CC(=O)O)c(C)n2C(=O)c1ccc(Cl)cc1,2.1%,3.5%&9.5%,0.1%,1.6%,-17.5%
CC(C)(C(=O)O)c1ccc([C@H](O)CCCN2CCC(C(O)(c3ccccc3)c3ccccc3)CC2)cc1,4.0%,8.4%,0.3%,-3.3%,17.2%
COc1ccc(Cn2cc(C(=O)O)c(=O)c3ccccc32)cc1,2.3%,27.8%,0.2%,2.6%,0.4%
Cc1ccc(/C=C/C(=O)c2ccccc2)cc1,-6.2%,-8.7%,-0.1%,-4.9%,9.2%
COc1ccccc1C(=O)NNC(=S)NC(=O)c1ccco1,2.9%,15.5%,0.5%,-5.9%,2.7%
COc1cccc(C(=O)Nc2cc3c(cc2N2CCCC2)n(C)c(=O)n3C)c1,7.8%,33.3%,0.6%,4.0%,15.2%
COc1cccc(N2CCN(CC(=O)Nc3ccc(-n4cnnn4)cc3)CC2)c1,-12.8%,9.5%,0.4%,3.3%,-2.3%
CC1=C/C(=C(/c2cc(C)c(O)c(Br)c2)c2ccccc2S(=O)(=O)O)C=C(Br)C1=O,5.7%,36.0%,0.6%,2.8%,4.6%
COC(=O)[C@H]1[C@H]2C[C@H]3c4[nH]c5ccccc5c4CCN3C[C@@H]2CC[C@@H]1O,.,25.7%&22.6%,.,.,.
COC(=O)C1=C(C)NC(C)=C([N+](=O)[O-])C1c1ccccc1C(F)(F)F (centres undefined),20.8%,1.0%&3.9%,-0.1%,1.4%,-8.0%
CN[C@H]1CC[C@@H](c2ccc(Cl)c(Cl)c2)c2ccccc21,14.4%&19.0%,16.4%&6.2%&7.2%,-0.1%&-0.5%,-8.0%&-4.6%,-9.3%&-15.0%
COc1ccc2cc([C@@H](C)C(=O)O)ccc2c1,.,8.1%,.,.,.
CC(C)(C)NC(=O)[C@H]1CC[C@H]2[C@@H]3CC[C@H]4NC(=O)C=C[C@]4(C)[C@H]3CC[C@]12C,-7.1%,5.0%&-3.0%,-0.1%,-8.5%,-15.0%
C#C[C@]1(O)CC[C@H]2[C@@H]3CCC4=CC(=O)CC[C@@H]4[C@H]3CC[C@@]21C,.,0.2%,.,.,.
CC(=O)Nc1ccc(Oc2ncccn2)cc1,17.6%,0.5%,-0.1%,-3.0%,-2.1%
CN(C)CCCN1c2ccccc2CCc2ccccc21,-0.4%,2.6%&11.7%,-0.1%,-5.2%,17.0%
CC(C)(C)c1ccc(-n2ncc3c2CCCC3NC(=O)CCN2CCCC2=O)cc1 (centres undefined),-3.4%,15.6%,-0.2%,-13.5%,-0.1%
N#C/C(=C\c1ccc(N2CCOCC2)o1)c1nc2ccccc2[nH]1,.,6.0%,-0.1%,-9.4%,26.1%
Cc1nn(-c2ccccc2)c(Cl)c1/C=N/NC(=O)c1ccncc1,2.2%,5.1%,0.0%,-6.2%,11.0%

# Arranged by molar mass (ascending): some entries from above.
SMILES,GPR55 antagonists,SV40 large T antigen,GPR55 activation,LYP phosphatase,GPR35 antagonists
Cc1ccc(/C=C/C(=O)c2ccccc2)cc1,-6.2%,-8.7%,-0.1%,-4.9%,9.2%
CN[C@H]1CC[C@@H](c2ccc(Cl)c(Cl)c2)c2ccccc21,14.4%&19.0%,16.4%&6.2%&7.2%,-0.1%&-0.5%,-8.0%&-4.6%,-9.3%&-15.0%
COc1ccccc1C(=O)NNC(=S)NC(=O)c1ccco1,2.9%,15.5%,0.5%,-5.9%,2.7%
N#C/C(=C\c1ccc(N2CCOCC2)o1)c1nc2ccccc2[nH]1,.,6.0%,-0.1%,-9.4%,26.1%
COc1cccc(N2CCN(CC(=O)Nc3ccc(-n4cnnn4)cc3)CC2)c1,-12.8%,9.5%,0.4%,3.3%,-2.3%
CC(C)(C)c1ccc(-n2ncc3c2CCCC3NC(=O)CCN2CCCC2=O)cc1 (centres undefined),-3.4%,15.6%,-0.2%,-13.5%,-0.1%
